Rango complex inh – qHTS Assay for Inhibitors of Rango (Ran-regulated importin-beta cargo) - Importin beta complex formation | Rango CFP/YFP FRET sensor + importin beta, 45 min | AID 540263, 2011 | 340,000 tested, 0.031% active | Potency, µM (top dose mostly 92.2 µM), for the others: at the highest dose inhibition of complex formation; active = rising FRET ratio curve, often small or poorly fitted; inconclusive = mostly compound fluorescence or quenching in the first reads; inactive = flat curves in all reads;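 further: potency means the concentration at half of the fitted maximal effect; 0% = DMSO wells and 100% = buffer wells lacking importin beta; nearly all actives have a fitted effect of over 15% in size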
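FRET biosensor (snurportin 1 IBB flanked by EYFP and cerulean), 50 nM, with compound 5 min, then 0.125 microM importin beta in PBS, 1 mM DTT, 0.02% Tween-20, 0.1% BSA. CFP/YFP ratio read after 45 min at room temperature; pre-read flags interference.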
miR-21 reporter – qHTS Assay for Modulators of miRNAs and/orActivators of miR-21; Potency, µM (series often up to 38.3 µM), without a hit: at the highest dose reporter change, positive = more light; 340,000 tested, under 10 active; HeLa miR-21 FLuc reporter, luciferase, 48 h; AID 2288, 2010; active = well fitted rising curve with a large enough effect; inconclusive = small, poorly fitted or top-dose-only effect; inactive = no such curve, though single readings can be large or run the other way;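 further: % of control where 0% means no effect; miR-21 action dims this reporter so a rising signal means less miR-21 action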
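HeLa cells stably expressing CMV-driven firefly luciferase with a downstream miR-21 binding sequence, endogenously expressing miR-21, were treated with titrations (up to about 40uM final) for 48 hours at 37 degree Celsius. Luciferase luminescence was read after lysis.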
GLA inh pH 4.5 – qHTS Assay for Inhibitors of Human alpha-Galactosidase at pH 4.5 | purified enzyme, 4-MU-alpha-Gal fluorescence, pH 4.5 | 230,000 tested, under 10 active | AID 1467, 2008 | activity change, negative = inhibition, % at 105 µM | Alpha-galactosidase A (Homo sapiens), P06280; inconclusive = small, poorly fitted or top-dose-only inhibition, or a rising curve; inactive = flat fitted curve, though single readings scatter; no compound was filed as active;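 further: 0% = full activity with enzyme and -100% = basal without enzyme; dose as in the result columns while the protocol names 77 µM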
Target sequence (P06280 whole entry, looked up): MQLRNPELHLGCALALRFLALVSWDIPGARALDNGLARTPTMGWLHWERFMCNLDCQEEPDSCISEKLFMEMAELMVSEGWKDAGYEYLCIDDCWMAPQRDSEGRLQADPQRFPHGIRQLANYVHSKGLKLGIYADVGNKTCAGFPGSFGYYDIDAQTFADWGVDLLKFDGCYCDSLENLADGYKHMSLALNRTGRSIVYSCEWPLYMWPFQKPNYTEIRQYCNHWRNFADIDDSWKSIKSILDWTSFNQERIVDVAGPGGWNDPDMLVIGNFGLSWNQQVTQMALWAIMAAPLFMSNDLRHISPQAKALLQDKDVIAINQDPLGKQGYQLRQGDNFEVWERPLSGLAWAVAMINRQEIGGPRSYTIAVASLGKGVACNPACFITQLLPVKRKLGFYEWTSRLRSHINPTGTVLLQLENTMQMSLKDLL
Rango dissoc inh – qHTS Assay for Inhibitors of RanGTP induced Rango (Ran-regulated importin-beta cargo) - Importin beta complex dissociation. Snurportin-1 (Homo sapiens) + GTP-binding nuclear protein Ran (Homo sapiens) + Importin …. Biochemical FRET Rango-importin beta, RanGTP-induced dissociation. Potency, µM (titrated, usually from 46.1 µM), for the others: at the highest dose activity change, negative = inhibition. 340,000 tested, 0.071% active; active means falling FRET ratio curve, often poorly fitted, with flat reads before Ran was added; inconclusive means other falling curves, or compound fluorescence or quenching; inactive means flat or rising ratio curve;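 further: potency means the concentration at half of the fitted maximal effect; % of control where 0% means no effect; nearly all actives have a fitted effect of over 45% in size; -100% = wells without RanGTP and RCC1; the record marks most hits as doubtful in a second field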
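Compounds preincubate 5 min with complex of recombinant Rango and importin beta in PBS with 1 mM DTT. Ran (0.6 uM) loaded with 2 mM GTP plus 0.2 uM RCC1 starts dissociation; FRET is recorded 45 min later.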
* = called active by the depositor; ? = inconclusive; nt = not tested or not shown. An excerpt; rates above refer to the full screens.

Rango complex inh	miR-21 reporter	GLA inh pH 4.5	Rango dissoc inh	SMILES
0.4%	-18%	nt	-7%	COc1ccc(-c2csc(NC(=O)Nc3ccccc3)n2)cc1
-4.0%	nt	nt	-13%	CCCCn1c(N)c(N(CC(C)C)C(=O)C2CCN(C(=O)c3ccc(Cl)cc3)CC2)c(=O)[nH]c1=O
0.8%	-20%	-1	-2%	Cc1cccc(OCCCC(=O)Nc2ccc3c(c2)OCO3)c1
?	-12%	-1	-9%	C/C(=N\NC(=S)Nc1ccc(C)cc1)c1cc2ccccc2o1
2.4%	nt	nt	1%	COc1ccc(NC(=O)CCN2C(=O)C3CC=CCC3C2=O)cc1S(=O)(=O)N1CCCCC1 (configuration not stated)
4.5%	25%	-1	-6%	CC(C)Oc1ccccc1C1CC(=O)Nc2cc3c(cc21)OCCO3 (configuration not stated)
0.6%	1%	-14	5%	O=C(NNc1cc(N2CCOCC2)nc(N2CCOCC2)n1)c1ccc(Cl)c(Cl)c1
0.2%	-61%	?	2%	COc1ccccc1C(=O)Nc1nc2cc3c(cc2s1)OCO3
-0.1%	-1%	-4	-10%	COc1ccc(CCNC(=O)CNC(=O)Cn2cnc3sc(C)c(C)c3c2=O)cc1OC
1.1%	nt	nt	31%	COC(=O)C1=C(C)N(CCCC(=O)O)C(=O)NC1c1ccc([N+](=O)[O-])cc1 (configuration not stated)
0.6%	-2%	nt	2%	COc1ccccc1/C=C1\SC(=S)N(NS(=O)(=O)c2ccc(C)cc2)C1=O
-2.9%	-5%	nt	16%	CCN(CC)Cc1c(C(=O)N/N=C(\C)c2ccncc2)nnn1-c1nonc1N
-0.6%	-2%	5	1%	Cc1onc(-c2ccccc2Cl)c1C(=O)NCC1CCCO1 (configuration not stated)
0.5%	nt	nt	0%	O=C(COC(=O)c1cnccn1)NC(=O)c1ccccc1
-0.3%	1%	nt	21%	Cc1cccc(NC(=O)CNC(=O)N2CC(=O)Nc3ccccc32)c1C
-1.2%	19%	2	-8%	Oc1c(CN2CCOCC2)cc(COCc2ccccc2)c2cccnc12
?	1%	nt	0%	COc1ccc(/C=C/C(=O)O)cc1S(=O)(=O)NCc1cccnc1
?	3%	2	?	CCOc1cc(-c2cc(-c3ccc(N)cc3)nc(N)c2C#N)ccc1O
0.0%	-1%	2	15%	CCOC(=O)/C(=N\Nc1ccccc1Cl)N(C)C1CCS(=O)(=O)C1 (configuration not stated)
-2.3%	5%	5	3%	CNC(=S)NNC(=O)c1cccn(Cc2ccccc2)c1=O
0.4%	3%	-8	2%	O=C(O)/C=C/C(=O)Nc1nccs1
-2.5%	2%	-5	1%	CCOc1nc(NCCO)nc(Nc2ccc([N+](=O)[O-])cc2)n1
1.9%	-1%	nt	-1%	Cc1ccc(S(=O)(=O)N2CCOCC2)cc1NC(=O)COC(=O)CNC(=O)c1ccc(Cl)cc1Cl
?	0%	-2	-20%	Cc1cc(OCC(=O)N(Cc2ccco2)C2CCS(=O)(=O)C2)cc(C)c1Cl (configuration not stated)
-0.3%	nt	nt	3%	Cc1cnc(C(=O)OCC(=O)Nc2ccc(Br)c(C)c2)cn1

Next part.
Rango complex inh	miR-21 reporter	GLA inh pH 4.5	Rango dissoc inh	SMILES
?	-39%	7	-9%	c1ccc(-c2csc(Nc3ccc4c(c3)OCCO4)n2)cc1
0.6%	0%	nt	11%	COc1ccc(OC)c(NC(=O)CN2C(=O)COc3ccc(S(=O)(=O)N4CCCC4)cc32)c1
-2.4%	0%	9	-4%	COc1ccc(C2Nc3ccc(Br)cc3C(c3ccccc3)N2CC(=O)O)cc1 (configuration not stated)
0.5%	-2%	6	10%	C=CCNC(=O)CSc1nnc(-c2ccccc2Cl)n1-c1c(C)n(C)n(-c2ccccc2)c1=O
?	-5%	-8	-5%	O=C(NCC1CC1)Nc1cccs1
nt	3%	-3	nt	CCCC(=O)Nc1cc(C)c(NC(=O)Cc2ccccc2)cn1
?	1%	-2	?	CCOC(=O)c1c(C)oc2c1c(C=NCc1ccccn1)c(O)c1ccccc12
-0.7%	-8%	-15	3%	COc1ccc2c(c1)c(C(=O)CN1CCc3ccccc3C1)c(C)n2C
6.0%	-5%	-2	-5%	O=C(Cn1cnnn1)Nc1cccc(S(=O)(=O)N2CCCCC2)c1
0.3%	nt	nt	-2%	COc1ccccc1NC(=O)C(C)OC(=O)CCNS(=O)(=O)c1cccc(C(F)(F)F)c1 (configuration not stated)
-1.7%	-4%	nt	-12%	CCN(CC)CCOC(=O)c1ccc(N/C=C(/C#N)c2nc(-c3cc4ccccc4oc3=O)cs2)cc1
-0.2%	4%	-8	3%	CCCCC(CC)C(=O)Nc1ccc(C#N)cc1 (configuration not stated)
1.5%	nt	nt	19%	COc1ccc(NC(=O)CN(C)C(=O)CSCC(=O)Nc2ccc(C)cc2)cc1
-1.6%	-2%	-26	6%	CN1C(N)=NC(=O)/C1=C/c1ccccc1F
-0.1%	-87%	2	-5%	COC(=O)c1ccc(-c2ccc(Cl)cc2)nc1C
-0.2%	0%	6	15%	CCCCn1c(SCC(=O)N2CCCC2)nc2c1c(=O)n(C)c(=O)n2C
0.0%	7%	-2	2%	CCn1c(COc2ccc(C)cc2)nnc1SCC(=O)Nc1ccc(S(N)(=O)=O)cc1
?	0%	-20	?	COC(=O)c1c(-c2ccccc2Cl)noc1/C=C/N(C)C
-1.1%	-10%	2	3%	CCOc1ccc(N(CC(=O)NCc2ccco2)S(C)(=O)=O)cc1
0.0%	-3%	nt	-6%	O=C(CCc1ccccc1)NNC(=S)NCc1ccc(Cl)cc1
-0.2%	-11%	4	2%	COc1ccc(C)cc1NC(=O)c1cc2c(CO)cnc(C)c2oc1=N
0.9%	nt	nt	2%	CN(C)S(=O)(=O)c1cccc(C(=O)Nc2ccccc2C(=O)NC2CC2)c1
-0.6%	-16%	nt	-2%	CC(=O)Nc1nc(-c2cccc3ccccc23)cs1
-3.6%	-1%	1	-8%	CCOc1ccccc1OCCCC(=O)NC1=NCCS1
-0.1%	0%	2	6%	CC(=O)Nc1ccc(S(=O)(=O)NCC(=O)OCC(=O)N2CCN(c3ccccc3)CC2)cc1

Further results follow.
Rango complex inh	miR-21 reporter	GLA inh pH 4.5	Rango dissoc inh	SMILES
15%	3%	-1	1%	CC1C(=O)CCN(C(C)(C)C)C1C (configuration not stated)
1.6%	-5%	nt	0%	COc1ccc(CNS(=O)(=O)c2ccc(-c3ccc(=O)[nH]n3)o2)cc1
-0.8%	-1%	5	22%	COc1ccc(S(=O)(=O)NCC2CCC(C(=O)NCC(OC)OC)CC2)cc1 (configuration not stated)
-0.7%	-2%	nt	8%	Cc1cc(C)cc(C(=O)NCC(=O)NCc2ccc(S(N)(=O)=O)cc2)c1
0.0%	nt	nt	-8%	O=S(=O)(NCCc1ccccc1)c1ccc(F)cc1Br
1.6%	1%	-7	-12%	CS(=O)(=O)NCCC1=CCCCC1
8.2%	nt	nt	16%	CC(C)(C)c1ccc(OCC(O)CN2CCc3ccccc3C2)cc1 (configuration not stated)
4.1%	-36%	2	-5%	CC(=O)N(C)c1ccc(NC(=O)c2ccco2)cc1
-3.1%	-14%	4	16%	O=C(/C=C/c1ccco1)Nc1ccc2c(c1)OCCO2
?	-17%	-1	-12%	COc1ccc(N=C2S/C(=C\c3cc(C)n(C)c3C)C(=O)N2CC(C)C)cc1
6.8%	-1%	-1	6%	O=C/C=C/c1coc2ccc3ccccc3c2c1=O
nt	-1%	-3	nt	C/C(CCN1CCCCc2nc(C)c(C)cc21)=N\O[C@H](C)c1cn([C@H](CO)Cc2ccccc2)nn1
-2.7%	-18%	-1	?	Cc1ccc(-c2nc3c(c(=O)c4ccccc4n3C)c(=O)n2-c2ccc(F)cc2)cc1
-1.1%	nt	nt	0%	C/C(=N\NC(=O)c1cccc(S(=O)(=O)N2CCCC2)c1)c1ccc(F)cc1
0.1%	4%	-1	8%	O=C(NCC1COc2ccccc2O1)C1C2C=CC3(CN(Cc4ccccc4Cl)C(=O)C13)O2 (configuration not stated)
?	0%	nt	-15%	Cc1cc(C)n(-c2nc3ccccc3nc2N2CCN(S(=O)(=O)c3cccc(C#N)c3)CC2)n1
2.7%	-1%	-3	0%	CSCCC(C(=O)OC1CCOC1=O)N1C(=O)c2ccccc2C1=O (configuration not stated)
-1.8%	-4%	2	6%	O=C(NC(C(=O)N/N=C/c1ccncc1)c1n[nH]c(=O)c2ccccc12)c1ccccc1 (configuration not stated)
-6.3%	nt	nt	-14%	CCCCn1c(N)c(N(CCOC)C(=O)COC(=O)C(C)(C)Oc2ccc(Cl)cc2)c(=O)[nH]c1=O
0.6%	-1%	-24	11%	COc1ccccc1C1CCN(C(=O)c2cccc([N+](=O)[O-])c2)CC1
-4.0%	4%	6	-12%	Cc1cc(-n2c(C)cc(C(=S)N3CCOCC3)c2C)ccc1Br
?	-47%	2	?	CCOc1ccc(C2C=C(c3ccccc3)Nc3nnnn32)cc1 (configuration not stated)
3.4%	-50%	-3	-2%	O=C(NCc1ccccc1)c1cc(-c2cccc(O)c2)on1
-4.7%	-9%	0	9%	CCCC(c1nnnn1CCOC)N1CCN(Cc2ccccc2)CC1 (configuration not stated)
-0.1%	4%	nt	9%	O=C(COc1ccccc1)Nc1nc(-c2ccncc2)cs1

Full records as entered above.
Record of O=C(/C=C/c1ccco1)Nc1ccc2c(c1)OCCO2 → Rango complex inh: -3.1%; miR-21 reporter: -14%; GLA inh pH 4.5: 4; Rango dissoc inh: 16%
Record of Cc1cc(C)n(-c2nc3ccccc3nc2N2CCN(S(=O)(=O)c3cccc(C#N)c3)CC2)n1 → Rango complex inh: ?; miR-21 reporter: 0%; GLA inh pH 4.5: nt; Rango dissoc inh: -15%

Quoted at random: 2 entries already listed, in no set order.
Rango complex inh	miR-21 reporter	GLA inh pH 4.5	Rango dissoc inh	SMILES
-0.8%	-1%	5	22%	COc1ccc(S(=O)(=O)NCC2CCC(C(=O)NCC(OC)OC)CC2)cc1 (configuration not stated)
15%	3%	-1	1%	CC1C(=O)CCN(C(C)(C)C)C1C (configuration not stated)

The list goes on.
Rango complex inh	miR-21 reporter	GLA inh pH 4.5	Rango dissoc inh	SMILES
-0.7%	-1%	nt	-1%	COc1ccc(-n2nc3c(c2NC(=O)c2ccccc2S(=O)(=O)C(F)F)CS(=O)(=O)C3)cc1
-1.9%	-2%	0	9%	Cc1nc2ccc(Br)cn2c1C(=O)N/N=C\c1ccccc1[N+](=O)[O-]
-3.7%	2%	nt	0%	COC(=O)C1(C)NC(c2ccc(O)cc2)C2C(=O)N(c3ccccc3)C(=O)C21 (configuration not stated)
-1.8%	0%	nt	17%	O=[N+]([O-])c1ccc(S(=O)(=O)Nc2ccncc2)cc1
-0.1%	1%	8	-3%	Cc1cc(C)nc(Sc2nc(Cl)nc(N(c3ccccc3)c3ccccc3)n2)n1
-1.1%	nt	nt	2%	C=CCOC(=O)C1=C[C@@H](c2csc3ccccc23)[C@H](CCCO)[C@@H](OCC)O1
-0.3%	-16%	6	22%	O=C1c2ccccc2-c2c1nc1c([n+]2[O-])CCCC1
6.4%	-3%	0	9%	Cc1c(C#N)c(NC(=O)c2cccc(Cl)c2)n(Cc2ccccc2)c1C
6.3%	?	-6	-10%	CC(=O)NC(c1cccs1)c1cc([N+](=O)[O-])c2cccnc2c1O (configuration not stated)
4.5%	13%	-7	-9%	O=NN(CCc1ccncc1)c1ccc(OCc2ccccc2)cc1
